# High-throughput results (PubChem BioAssay)
# Shh pathway inh: blocks Sonic Hedgehog signaling. Shh-LIGHT2 Gli-luciferase reporter, 30 h. inhibition, % (no concentration beside the values). hit rate 2.1% among 22,000. AID 2313;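 active = replicate mean of 65% or more; inconclusive = mean lower but half the replicates past it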;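 note: pathway switched on by Shh-conditioned medium diluted 1 in 25 in low serum; 100 nL library stock added to about 40 µL; 0% = median of neutral wells and 100% = positive control level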
# PD-1 reversal: reversal of PD-1 mediated T-cell inhibition; primary human CD4 T cells, PD-L1 beads, CellTiter-Glo 96 h; 29,000 tested, under 10 active; activation, % (test concentration not listed); AID 2316;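 active = replicate mean of 50% or more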;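 note: 0% = median vehicle wells and 100% = positive control; 100 nL library stock added to about 50 µL; numbers are from one replicate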
# YB-1 expression: YB-1 expression inhibition; U2OS, qRT-PCR YB-1 vs CDIP delta delta Cp, 16 h; stronger effect = higher value; zero = DMSO, each unit about twofold; delta delta Cp (YB-1 minus CDIP) (no concentration beside the values); hit rate 0.37% among 30,000;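 active = delta delta Cp rounded down to an integer at or above 3, about 3 SD of DMSO wells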;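 note: higher means less YB-1 transcript or more CDIP transcript relative to DMSO; stock transfer was 100 nL into about 100 µL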
# MITF inh: inhibitors of MITF; hit rate 0.28% among 37,000; inhibition, % (no concentration beside the values); AID 2240; TRPM1 promoter luciferase, luminescence, 24 h;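 active = most replicates at 85% or more, or half of them and the mean; inconclusive = half reach 85% but not the mean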;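 note: human melanocyte line stably carrying TRPM1 promoter luciferase reporter; 0% = vehicle wells and 100% = a positive control; the first replicate is given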
# Starred values were filed as active, the others as inactive; ? = inconclusive; . = no result given. These rows are one share of the data, so the mix of outcomes need not match the whole.
Structure	MITF inh	PD-1 reversal	YB-1 expression	Shh pathway inh
Cc1ccc(S(=O)(=O)Nc2ccc3c(c2)C(=O)N([C@H](C)CO)C[C@@H](C)[C@H](CN(C)Cc2ccc(C(=O)Nc4ccccc4N)cc2)O3)cc1	22	-1.1	-0.018	.
CNC(=O)NC(=O)CSc1ncnc2sc(-c3ccccc3)cc12	-5	0.2	-0.0072	9
C[C@H](CO)N1C[C@H](C)[C@H](CN(C)S(C)(=O)=O)Oc2c(NC(=O)Nc3ccc(F)cc3)cccc2C1=O	3	2.7	0.048	-36
Brc1ccc(N=C(c2ccccc2)c2ccncc2)cc1	-4	-1.1	-0.045	7
C[C@@H]1CN([C@H](C)CO)C(=O)Cc2cc(NC(=O)c3ccncc3)ccc2O[C@H]1CN(C)CC1CC1	-8	-0.2	0.22	2
COc1ccc(-c2cc(C(F)(F)F)n3nc(C(=O)NCc4ccco4)cc3n2)cc1OC	-15	-1.8	.	.
C[C@@H]1CN([C@@H](C)CO)C(=O)Cc2cc(NC(=O)CCN3CCOCC3)ccc2O[C@@H]1CN(C)C(=O)Nc1ccc(F)cc1	-2	0.5	0.065	16
COc1ccc(NC(=O)Nc2ccc3c(c2)CC(=O)N([C@H](C)CO)C[C@@H](C)[C@@H](CN(C)S(=O)(=O)c2ccc(C)cc2)O3)cc1	12	-1.0	0.14	.
COC(=O)c1ccc(Cl)c(NC(=O)Cc2ccccc2[N+](=O)[O-])c1	20	-1.7	.	.
C[C@@H]1CN([C@H](C)CO)C(=O)Cc2cc(NC(=O)Cn3cnnn3)ccc2O[C@H]1CN(C)S(=O)(=O)c1ccc(F)cc1	-2	.	0.73	22
C[C@H](CO)N1C[C@H](C)[C@@H](CN(C)CC2CC2)Oc2c(NS(C)(=O)=O)cccc2C1=O	-10	2.4	-0.21	4
O=C(COc1cccc2ccccc12)Nc1cc(C(=O)O)cc(C(=O)O)c1	16	3.4	.	.
Cc1noc(C)c1NC(=O)N(C)C[C@@H]1Oc2c(NS(=O)(=O)c3ccc(Cl)cc3)cccc2C(=O)N([C@@H](C)CO)C[C@H]1C	-9	1.5	0.087	-10
CNS(=O)(=O)c1c(I)ccc2ccccc12	-4	0.2	0.17	1
COC(=O)C(C#N)C(c1cccnc1)c1c(C)[nH][nH]c1=O (stereo not given)	4	-1.8	.	.
Cc1cc(C)c(NC(=O)CSc2nc(-c3ccccc3)cc(=O)[nH]2)c([N+](=O)[O-])c1	-24	1.4	.	.
C[C@H](CO)N1C[C@H](C)[C@@H](CN(C)CC2CCCCC2)Oc2c(NC(=O)c3ccncc3)cccc2C1=O	-8	-0.5	1.3	13
Cc1noc(C)c1NC(=O)Nc1cccc2c1O[C@H](CN(C)C(=O)NC(C)C)[C@H](C)CN([C@H](C)CO)C2=O	0	2.0	0.18	-10
CS(=O)(=O)N(CC(=O)Nc1ccccc1C(=O)N1CCCC1)c1cccc(F)c1	-16	1.8	.	.
C[C@H]1CN([C@@H](C)CO)C(=O)c2cccc(NC(=O)Nc3ccc(C(F)(F)F)cc3)c2O[C@@H]1CN(C)Cc1ccc(C(=O)O)cc1	-4	.	-0.18	-30
CNC[C@H]1Oc2ccc(NC(=O)Nc3c(C)noc3C)cc2C(=O)N([C@H](C)CO)C[C@H]1C	-4	1.8	0.012	.
C[C@@H]1CN([C@@H](C)CO)C(=O)Cc2cc(N(C)C)ccc2O[C@@H]1CN(C)S(=O)(=O)c1ccc(F)cc1	0	-0.7	-0.34	-31
Cc1noc(C)c1S(=O)(=O)N(C)C[C@@H]1Oc2ccc(NC(=O)NC3CCCCC3)cc2CC(=O)N([C@H](C)CO)C[C@@H]1C	-25	.	-0.048	.
C[C@@H]1CN([C@H](C)CO)C(=O)Cc2cc(NC(=O)Nc3ccc(F)cc3)ccc2O[C@@H]1CN(C)Cc1ccccc1	2	-0.4	-0.13	13
CC1=CC(C)(C)Nc2ccc(OC(=O)CN3C(=O)c4cccc([N+](=O)[O-])c4C3=O)cc21	33	-13	.	.

# The list goes on.
Structure	MITF inh	PD-1 reversal	YB-1 expression	Shh pathway inh
COc1ccc(NC(=O)NCCc2ccccc2OC)c(OC)c1	-20	1.3	.	.
C[C@@H]1CN([C@@H](C)CO)C(=O)c2cc(NC(=O)Cc3cn(C)c4ccccc34)ccc2O[C@H]1CN(C)Cc1ccc(Cl)c(Cl)c1	41	-2.4	0.087	.
COc1cc(C(=O)OCCCN2CCCN(CCCOC(=O)c3cc(OC)c(OC)c(OC)c3)CC2)cc(OC)c1OC	-10	.	-0.11	-11
COc1cc2c(cc1OC)C(c1ccc(N)cc1)=NNC(=O)C2	8	.	0.2	-24
O=S(=O)(Nc1nccs1)c1ccc(NS(=O)(=O)c2cccs2)cc1	0	0.2	.	.
C[C@@H]1CN([C@H](C)CO)C(=O)Cc2cc(NS(=O)(=O)c3ccccc3)ccc2O[C@H]1CN(C)S(=O)(=O)c1cn(C)cn1	2	.	-0.2	-17
CC(C)NC(=O)Nc1ccc2c(c1)C(=O)N([C@H](C)CO)C[C@@H](C)[C@H](CN(C)C(=O)Nc1ccc3c(c1)OCO3)O2	-1	.	0.32	-31
C[C@@H]1CN([C@@H](C)CO)C(=O)c2cc(NC(=O)NC3CCCCC3)ccc2O[C@@H]1CN(C)Cc1ccc(Oc2ccccc2)cc1	-27	-5.5	0.082	50
Cc1ccc(S(=O)(=O)Nc2ccc3c(c2)C(=O)N([C@@H](C)CO)C[C@@H](C)[C@@H](CN(C)C(=O)Nc2c(C)noc2C)O3)cc1	3	-0.1	-0.039	5
c1ccc(-c2cc3c(N4CCc5ccccc54)ncnc3s2)cc1	-30	0.3	0.13	-24
COCc1nc2c([nH]1)C(c1ccccc1COc1ccc(Cl)cc1)C(C#N)=C(N)O2 (stereo not given)	-30	-0.5	-0.29	-17
CNC(=O)CN(C#N)c1nc(C)cc(C)n1	-3	3.2	.	.
COc1ccc(NC(=O)N(C)C[C@H]2Oc3ccc(NS(=O)(=O)c4ccccc4)cc3CC(=O)N([C@@H](C)CO)C[C@@H]2C)cc1	6	-0.2	-0.47	-6
COc1ccc(NC(=O)c2c(NC(=O)Cc3ccc(OC)c(OC)c3)sc3c2CCC3)cc1	-9	-1.4	.	.
COc1ccc(NC(=O)N(C)C[C@H]2Oc3ccc(NC(=O)Cc4ccccc4)cc3CC(=O)N([C@@H](C)CO)C[C@@H]2C)cc1	4	.	0.18	0
COc1ccc(C(=O)Nc2sc3c(c2C(=O)Nc2cccc(OC)c2)CCC3)cc1	-47	1.7	.	.
C[C@H]1CN([C@@H](C)CO)C(=O)Cc2cc(NC(=O)Nc3ccc(C(F)(F)F)cc3)ccc2O[C@H]1CN(C)Cc1ccc(Cl)c(Cl)c1	93*	-17	-0.038	9
C[C@@H]1CN([C@H](C)CO)C(=O)Cc2cc(NC(=O)Cc3cn(C)c4ccccc34)ccc2O[C@@H]1CN(C)Cc1ccc(C(=O)Nc2ccccc2N)cc1	10	-1.7	-0.23	.
O=C(CSc1nnc(-c2ccccc2Cl)n1-c1ccccc1)Nc1ccc(Br)cc1	5	-5.3	.	.
COc1ccc(NC(=O)N(C)C[C@@H]2Oc3ccc(NC(=O)Nc4ccccc4)cc3CC(=O)N([C@@H](C)CO)C[C@@H]2C)cc1	5	0.0	0.24	-5
Cc1ccc2cccc(OCc3nnc(SCC(N)=O)n3C)c2n1	10	0.6	.	.
Cc1ccc(S(=O)(=O)N(C)C[C@@H]2Oc3ccc(NC(=O)Nc4ccc5c(c4)OCO5)cc3C(=O)N([C@H](C)CO)C[C@@H]2C)cc1	-58	-0.5	-0.68	.
O=C(/C=C/c1ccc(O)cc1)OC[C@H]1O[C@@H](O[C@@H]2OC=C[C@H]3[C@H](O)[C@@H]4O[C@]4(CO)[C@@H]23)[C@H](O)[C@@H](O)[C@@H]1O	-16	-0.8	0.048	-20
CNC[C@@H]1Oc2ccc(NS(=O)(=O)c3cn(C)cn3)cc2C(=O)N([C@H](C)CO)C[C@@H]1C	-14	.	-0.43	.
C[C@@H]1CN([C@H](C)CO)C(=O)c2cc(NC(=O)NC3CCCCC3)ccc2O[C@H]1CN(C)C(=O)Nc1cccc2ccccc12	-3	-1.8	0.075	.

# Next entries follow.
Structure	MITF inh	PD-1 reversal	YB-1 expression	Shh pathway inh
C[C@@H]1CCCCO[C@@H](CN(C)Cc2ccc(C(=O)O)cc2)[C@@H](C)CN([C@H](C)CO)C(=O)c2cc(NC(=O)c3ccccc3)ccc2O1	5	1.1	0.47	.
C[C@@H]1CN([C@@H](C)CO)C(=O)Cc2cc(NS(=O)(=O)c3ccc(Cl)cc3)ccc2O[C@@H]1CN(C)C(=O)Nc1ccc(F)cc1	-12	0.6	0.1	-27
O=C(CCCN1C(=O)c2ccccc2C1=O)Nc1cccc(F)c1	-2	-0.1	.	.
CCC(Sc1nnc2c3ccccc3n(C)c2n1)C(=O)Nc1cccc2ccccc12 (stereo not given)	44	-0.2	.	.
O=C(Oc1cccc(C(F)(F)F)c1)c1cc2ccc3ccccc3c2s1	1	0.4	-0.15	-32
COC(=O)C[C@H]1C(C)(C)[C@@H](OC(C)=O)[C@@H]2CC3=C4CC(=O)O[C@@H](c5ccoc5)[C@]4(C)CCC3[C@@]1(C)C2=O (stereo not given in full)	-13	.	-0.096	?
CC(C)NC(=O)Nc1cccc2c1O[C@@H](CN(C)Cc1ccc(-c3ccccc3)cc1)[C@@H](C)CN([C@H](C)CO)C2=O	3	-2.0	-0.14	-20
Cc1ccc(N(CC(=O)NC2CCCC2)S(C)(=O)=O)cc1Cl	-11	0.9	.	.
COc1ccc(NC(=O)Nc2ccc3c(c2)CC(=O)N([C@@H](C)CO)C[C@@H](C)[C@@H](CN(C)C(=O)Nc2ccccc2)O3)cc1	20	-0.1	-0.065	-40
CC(C)NC(=O)N(C)C[C@H]1Oc2ccc(NC(=O)C3CCCCC3)cc2CC(=O)N([C@H](C)CO)C[C@H]1C	-3	3.1	0.023	-13
Cc1ccc(S(=O)(=O)Nc2cccc3c2O[C@@H](CN(C)C(=O)NC2CCCCC2)[C@@H](C)CN([C@@H](C)CO)C3=O)cc1	4	-3.7	-0.6	-21
CS(=O)(=O)N(CC(=O)Nc1ccc2ccccc2c1)c1ccc(F)cc1	-7	1.1	.	.
Cc1noc(C)c1NC(=O)Nc1cccc2c1O[C@H](CN(C)Cc1ccc(C(F)(F)F)cc1)[C@H](C)CN([C@@H](C)CO)C2=O	-10	0.4	0.44	-94
C[C@@H]1CN([C@H](C)CO)C(=O)Cc2cc(NC(=O)CCN3CCOCC3)ccc2O[C@H]1CN(C)C(=O)Nc1cccc2ccccc12	12	-0.3	0.4	.
COc1cc(OC)c2c(=O)c(-c3ccccc3)coc2c1	-65	.	-0.02	-56
COc1ccc(S(=O)(=O)N(C)C[C@@H]2Oc3ccc(NS(=O)(=O)c4cccs4)cc3CC(=O)N([C@@H](C)CO)C[C@@H]2C)cc1	-5	0.7	-0.23	-23
CCCCN(C(=O)c1ccccc1)C1CC2CCC(C1)N2C (stereo not given)	1	0.8	-0.41	-3
O=C(Cn1ccc([N+](=O)[O-])n1)Nc1ccc(F)cc1	-12	1.2	.	.
C[C@@H]1CN([C@@H](C)CO)C(=O)c2cc(NC(=O)c3ccncc3)ccc2O[C@@H]1CN(C)Cc1ccc2c(c1)OCO2	-3	2.5	-0.025	-6
C[C@@H]1CN([C@@H](C)CO)C(=O)Cc2cc(NC(=O)C3CC3)ccc2O[C@@H]1CN(C)C(=O)Nc1ccccc1	-3	0.9	-0.27	-22
C[C@@H]1CN([C@@H](C)CO)C(=O)c2cc(NC(=O)Nc3ccc(C(F)(F)F)cc3)ccc2O[C@H]1CN(C)Cc1ccc(C(=O)Nc2ccccc2N)cc1	5	-0.1	0.43	.

# An excerpt of these results, field by field:
c1ccc(-c2cc3c(N4CCc5ccccc54)ncnc3s2)cc1
  MITF inh: -30; PD-1 reversal: 0.3; YB-1 expression: 0.13; Shh pathway inh: -24
O=C(CCCN1C(=O)c2ccccc2C1=O)Nc1cccc(F)c1
  MITF inh: -2; PD-1 reversal: -0.1; YB-1 expression: .; Shh pathway inh: .
C[C@H]1CN([C@@H](C)CO)C(=O)c2cccc(NC(=O)Nc3ccc(C(F)(F)F)cc3)c2O[C@@H]1CN(C)Cc1ccc(C(=O)O)cc1
  MITF inh: -4; PD-1 reversal: .; YB-1 expression: -0.18; Shh pathway inh: -30
C[C@@H]1CN([C@@H](C)CO)C(=O)c2cc(NC(=O)Cc3cn(C)c4ccccc34)ccc2O[C@H]1CN(C)Cc1ccc(Cl)c(Cl)c1
  MITF inh: 41; PD-1 reversal: -2.4; YB-1 expression: 0.087; Shh pathway inh: .
